Bioassay records (PubChem)
FGF22 binding = FGF22 (human) thermal shift binding | Q9HCT0 | recombinant FGF22 thermal shift, SYPRO orange fluorescence; percent of sucrose octasulfate shift, DMSO zero | calls only at 9.99 µM | 1.5% of 340,000 active | AID 651658;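 active means melting point raised past a set limit in the mean and every replicate; three in four hits are not shown here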
Target sequence (Q9HCT0 whole entry, looked up): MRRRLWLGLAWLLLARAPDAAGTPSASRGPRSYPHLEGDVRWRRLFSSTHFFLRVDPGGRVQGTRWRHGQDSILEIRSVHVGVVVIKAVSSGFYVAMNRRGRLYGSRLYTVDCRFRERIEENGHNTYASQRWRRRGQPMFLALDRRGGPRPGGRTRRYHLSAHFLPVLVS
MLL AF4-AF9 inh = inhibitors of human MLL-AF4/AF9 interaction | P42568 | AlphaScreen, biotin-AF4 peptide binding to FLAG-AF9 | inhibition, % at 10 µM | AID 651704 | 0.47% of 350,000 active;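 active means every replicate reaching a set inhibition limit, whatever the replicate mean, cut at about 25% in these data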;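 further: 0% = plate neutral control median and 100% = total signal loss; the record names both 10 and 1 µM as test concentration; the first replicate is given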
Target sequence (P42568 whole entry, looked up): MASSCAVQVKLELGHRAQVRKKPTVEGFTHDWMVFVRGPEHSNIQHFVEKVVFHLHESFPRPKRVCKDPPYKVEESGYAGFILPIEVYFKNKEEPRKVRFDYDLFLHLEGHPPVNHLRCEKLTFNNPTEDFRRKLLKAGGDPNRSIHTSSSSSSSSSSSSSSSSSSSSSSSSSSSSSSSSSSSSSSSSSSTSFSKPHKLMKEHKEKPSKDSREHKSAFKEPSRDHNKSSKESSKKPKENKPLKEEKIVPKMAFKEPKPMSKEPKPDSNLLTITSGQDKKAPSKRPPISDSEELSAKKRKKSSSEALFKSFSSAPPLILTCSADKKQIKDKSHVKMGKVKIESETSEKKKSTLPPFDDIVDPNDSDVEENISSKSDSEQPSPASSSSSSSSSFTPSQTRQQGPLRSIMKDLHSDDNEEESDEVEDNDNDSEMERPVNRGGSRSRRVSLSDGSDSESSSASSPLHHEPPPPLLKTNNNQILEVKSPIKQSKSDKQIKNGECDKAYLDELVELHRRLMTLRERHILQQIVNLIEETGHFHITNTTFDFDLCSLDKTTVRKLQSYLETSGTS
The depositor's hits bear a star; i = inactive. An excerpt; the hit share may differ from the screen's.

SMILES | FGF22 binding | MLL AF4-AF9 inh
COc1ccc2c3c(n(C)c2c1)[C@H](CO)N(C(=O)Nc1ccc(F)cc1)CC31CCN(C(=O)CC2CC2)CC1 | i | -1.4
Cc1ccc(-c2cnc3c(c2)C(=O)N([C@H](C)CO)C[C@@H](C)[C@@H](CN(C)C(=O)Cc2ccncc2)O3)cc1 | i | -1.7
COCC(=O)NC[C@H]1[C@H](c2ccc(C3=CCCC3)cc2)[C@@H](CO)N1C(=O)C1CC1 | i | -1.3
CCCC#Cc1ccc2c(c1)O[C@@H](CN(C)C(=O)C1CC1)[C@@H](C)CN([C@H](C)CO)S2(=O)=O | i | -3.5
Cc1noc(C)c1S(=O)(=O)Nc1cccc2c1O[C@H](CN(C)C(=O)Nc1ccc3c(c1)OCO3)[C@H](C)CN([C@H](C)CO)C2=O | i | -1.1
Cc1cc(C(=O)Nc2cccc3c2O[C@@H](CN(C)C(=O)Nc2ccccc2)[C@H](C)CN([C@H](C)CO)C3=O)n(C)n1 | i | -2.7
CC(C)NC(=O)N1CCCCN2[C@@H](CO)[C@H](c3ccc(C#CC4CC4)cc3)[C@@H]2C1 | i | 3.4
Cc1ccc(S(=O)(=O)Nc2ccc3c(c2)C(=O)N([C@@H](C)CO)C[C@H](C)[C@@H](CN(C)Cc2ccccc2)O3)cc1 | i | 0.1
C[C@H](CO)N1C[C@H](C)[C@H](CN(C)S(=O)(=O)c2cccs2)Oc2ccc(NC(=O)Cc3ccccc3)cc2C1=O | i | -29
O=S(=O)(N[C@H]1CC[C@@H](CCn2cc(-c3cccnc3)nn2)O[C@H]1CO)c1ccc(Cl)cc1 | i | 0.8
O=C(C[C@H]1CC[C@@H](NC(=O)Nc2ccc(F)cc2)[C@@H](CO)O1)NCc1cccc(F)c1 | i | -1.1
COc1ccc(NC(=O)N(C)C[C@H]2Oc3ccc(NS(=O)(=O)c4ccc(Cl)cc4)cc3CC(=O)N([C@@H](C)CO)C[C@@H]2C)cc1 | i | -1.0
COc1cccc(NC(=O)N[C@@H]2C=C[C@@H](CC(=O)NCc3ccccn3)O[C@H]2CO)c1 | i | 1.0
COCC(=O)N(C)C[C@@H]1Oc2cc(C3=CCCC3)ccc2S(=O)(=O)N([C@@H](C)CO)C[C@@H]1C | i | -3.3
COc1ccccc1-c1ccc2c(c1)[C@H]1[C@H](CCN1S(=O)(=O)c1ccccc1F)[C@H](CO)N2 | i | -3.5
O=C(Cc1ccncc1)NCC[C@@H]1CC[C@@H](NS(=O)(=O)c2ccccc2Cl)[C@@H](CO)O1 | i | -1.8
C[C@H]1CN([C@@H](C)CO)C(=O)c2c(c3ccccc3n2C)-c2ccccc2CO[C@@H]1CN(C)S(C)(=O)=O | i | -1.1
Cc1ccc(-c2cnc3c(c2)C(=O)N([C@H](C)CO)C[C@H](C)[C@@H](CN(C)C(=O)Cc2ccccc2)O3)cc1 | i | 1.6
C[C@H](CO)N1C[C@H](C)[C@H](CN(C)Cc2ccccc2)Oc2ccc(NC(=O)Cc3ccccc3)cc2C1=O | i | -3.1
O=C(C[C@H]1CC[C@H](NC(=O)c2ccncc2)[C@H](CO)O1)NCC1CCCCC1 | i | 0.5
COC(=O)[C@@H]1[C@@H](CO)[C@@H]2Cn3c(ccc(-c4ccccc4F)c3=O)[C@@H]2N1C(=O)c1cnccn1 | i | -2.6
CO[C@H]1CN(C)C(=O)c2cc(NC(=O)c3nc4ccccc4s3)ccc2OC[C@@H](C)N(Cc2cccnc2)C[C@@H]1C | i | 7.4
COC(=O)C[C@H]1CC[C@@H]2[C@H](COc3ccc(NC(=O)c4cccc(OC)c4)cc3C(=O)N2C)O1 | i | 0.5
COC(=O)[C@]12C[C@H](CC(=O)N3CCC(c4ccccc4)CC3)C(=O)N(Cc3ccccc3)C1=C[C@H](C(C)C)O[C@@H]2C1CC1 | i | 3.1
C[C@H](CO)N1C[C@H](C)[C@H](CN(C)C(=O)C2CCC2)Oc2ncc(C#CC3CCCC3)cc2C1=O | i | -1.8

Brought forward from above: 3 compounds; new compounds follow.
SMILES | FGF22 binding | MLL AF4-AF9 inh
COC(=O)C[C@H]1CC[C@@H]2[C@H](COc3ccc(NC(=O)c4cccc(OC)c4)cc3C(=O)N2C)O1 | i | 0.5
COC(=O)[C@]12C[C@H](CC(=O)N3CCC(c4ccccc4)CC3)C(=O)N(Cc3ccccc3)C1=C[C@H](C(C)C)O[C@@H]2C1CC1 | i | 3.1
C[C@H](CO)N1C[C@H](C)[C@H](CN(C)C(=O)C2CCC2)Oc2ncc(C#CC3CCCC3)cc2C1=O | i | -1.8
CN(C)CCCN1C(=O)[C@@]2(Cc3ccccc31)c1ccccc1C(=O)N(Cc1ccccc1C(F)(F)F)[C@H]2c1ccc(CO)cc1 | i | -14
C[C@H](CO)N1C[C@H](C)[C@@H](CN(C)Cc2cccc(C(=O)O)c2)OCc2ccccc2-c2c(n(C)c3ccccc23)C1=O | i | -1.7
O=C(Nc1cccc(F)c1)N[C@@H]1CC[C@H](CCn2cc(Cc3ccccc3)nn2)O[C@@H]1CO | i | -0.1
COCCNC(=O)C[C@H]1CC[C@@H]2[C@H](COc3ccc(NC(=O)COC)cc3C(=O)N2C)O1 | i | 0.9
CO[C@@H]1CN(C)C(=O)c2ccc(NC(=O)C3CC3)cc2OC[C@@H](C)N(C(=O)c2ccccn2)C[C@H]1C | i | -2.4
C[C@H]1CN([C@@H](C)CO)C(=O)c2cc(C#CC3CC3)cnc2O[C@H]1CN(C)C(=O)Cc1ccccn1 | i | -2.6
CN1C(=O)C2C(C1=O)C1C=C(CCCO)C2C(c2ccc(CN3CCCC3)cc2)N1Cc1sc2ccccc2c1Cl (stereo not given) | i | 6.4
O=C(C[C@@H]1CC[C@@H]2[C@H](COC[C@@H](O)CN2CC2CC2)O1)NCc1ccc(Cl)cc1 | i | -1.1
CS(=O)(=O)N1[C@H](C(=O)NCc2ccncc2)[C@@H](CO)[C@@H]2Cn3c(ccc(C4=CCCCC4)c3=O)[C@@H]21 | i | 0.4
C[C@@H]1CCCCO[C@H](CN(C)CC2CC2)[C@H](C)CN([C@@H](C)CO)C(=O)c2cc(NC(=O)Nc3ccc4c(c3)OCO4)ccc2O1 | i | 34*
O=C(C[C@H]1C[C@@H]2c3cc(NC(=O)C4CCOCC4)ccc3O[C@@H]2[C@@H](CO)O1)NCc1ccc2c(c1)OCO2 | i | -1.8
C[C@H](CO)N1C[C@H](C)[C@@H](CN(C)Cc2ccc(Oc3ccccc3)cc2)Oc2c(NC(=O)C3CCCCC3)cccc2C1=O | i | -0.3
C[C@@H]1CN([C@H](C)CO)C(=O)Cc2cc(NC(=O)CCN3CCOCC3)ccc2O[C@H]1CN(C)C(=O)Nc1cccc2ccccc12 | i | 0.2
COc1ccc2c3c(n(C)c2c1)[C@H](CO)N(C(=O)Nc1ccc(F)cc1)CC31CN(C(=O)c2ccc3c(c2)OCO3)C1 | i | 0.4
O=C(O)[C@@H]1C[C@@H](O)CN1 | i | -2.8
C[C@@H]1CN([C@H](C)CO)C(=O)c2cc(-c3ccc(F)cc3)cnc2O[C@H]1CN(C)S(C)(=O)=O | i | -0.1
C[C@H](CO)N1C[C@H](C)[C@@H](CN(C)S(=O)(=O)c2ccccc2)Oc2c(NC(=O)C3CCOCC3)cccc2C1=O | i | -2.2
C[C@H](CO)N1C[C@H](C)[C@H](CN(C)C(=O)c2ccccc2)OCc2ccccc2-c2ccccc2C1=O | i | -5.0
COc1ccc(-c2ccc3c(c2)O[C@H](CN(C)C(C)=O)[C@H](C)CN([C@@H](C)CO)S3(=O)=O)cc1 | i | 0.7
C[C@H]1CN([C@@H](C)CO)C(=O)c2cc(-c3cccnc3)cnc2O[C@@H]1CN(C)C(=O)C1CCC1 | i | -3.8
CCCNC(=O)N(C)C[C@@H]1Oc2ncc(-c3cccc(C#N)c3)cc2C(=O)N([C@H](C)CO)C[C@H]1C | i | -1.8
C[C@H](CO)N1C[C@H](C)[C@@H](CN(C)C(=O)C2CCOCC2)Oc2ncc(-c3ccccc3)cc2C1=O | i | -1.1
CN(C)C(=O)c1ccc(-c2ccc3c(c2)[C@H]2[C@H](CCN2Cc2ccc4c(c2)OCO4)[C@@H](CO)N3)cc1 | i | 3.9
Cc1noc(C)c1S(=O)(=O)Nc1cccc2c1O[C@@H](CN(C)Cc1ccc(C(F)(F)F)cc1)[C@@H](C)CN([C@@H](C)CO)C2=O | i | -2.0
Cc1ccc(S(=O)(=O)Nc2ccc3c(c2)C(=O)N([C@H](C)CO)C[C@H](C)[C@H](CN(C)CC2CCCCC2)OCCCC[C@@H](C)O3)cc1 | i | 1.5

2 records drawn at random from those above, as already listed:
SMILES | FGF22 binding | MLL AF4-AF9 inh
O=C(C[C@@H]1CC[C@@H]2[C@H](COC[C@@H](O)CN2CC2CC2)O1)NCc1ccc(Cl)cc1 | i | -1.1
C[C@H](CO)N1C[C@H](C)[C@@H](CN(C)Cc2cccc(C(=O)O)c2)OCc2ccccc2-c2c(n(C)c3ccccc23)C1=O | i | -1.7

Other results
SMILES | FGF22 binding | MLL AF4-AF9 inh
C[C@@H]1CN([C@@H](C)CO)C(=O)Cc2cc(NC(=O)NC3CCCCC3)ccc2O[C@@H]1CN(C)C(=O)Nc1ccc(F)cc1 | i | 0.0
CCC(=O)N(C)C[C@@H]1Oc2ncc(-c3ccc(C(=O)N(C)C)cc3)cc2C(=O)N([C@H](C)CO)C[C@H]1C | i | 1.4
COCC#Cc1cnc2c(c1)C(=O)N([C@@H](C)CO)C[C@@H](C)[C@H](CN(C)C(=O)Nc1c(C)noc1C)O2 | i | -2.8
CNC[C@@H]1Oc2c(NC(=O)c3cnccn3)cccc2C(=O)N([C@H](C)CO)C[C@H]1C | i | -4.2
CC=Cc1ccc2n(c1=O)C[C@H]1[C@H](CO)[C@@H](C(=O)NC3CCC3)[C@@H]2N1C(=O)c1ccccn1 (mixture of isomers) | i | 0.4
C[C@@H]1CN([C@@H](C)CO)C(=O)c2cc(-c3ccc(F)cc3)cnc2O[C@H]1CN(C)C(=O)c1ccc(F)cc1 | i | -1.0
COCC(=O)Nc1ccc2c(c1)[C@H]1C[C@H](CC(=O)NC3CCCCC3)O[C@@H](CO)[C@H]1O2 | i | 0.7
COCCNC(=O)C[C@@H]1CC[C@H](NC(=O)NC2CCCC2)[C@@H](CO)O1 | i | -3.2
COCC(=O)Nc1ccc2c(c1)[C@H]1C[C@@H](CC(=O)NCc3ccc4c(c3)OCO4)O[C@H](CO)[C@H]1O2 | i | -3.4
COc1ccccc1NC(=O)N[C@H]1CC[C@H](CCNS(=O)(=O)c2ccccc2)O[C@@H]1CO | i | 0.0
O=C(C[C@@H]1CC[C@H]2[C@@H](COC[C@H](O)CN2Cc2ccc(F)cc2)O1)NCc1ccncn1 | i | -4.5
COC(=O)[C@]12C[C@H](CC(=O)NCc3ccccc3)C(=O)N(Cc3ccc4c(c3)OCO4)C1=C[C@H](COCc1ccccc1)O[C@@H]2C | i | -2.9
C[C@@H]1CN([C@@H](C)CO)C(=O)Cc2cc(NC(=O)Cn3cnnn3)ccc2O[C@H]1CN(C)S(=O)(=O)c1ccc(Cl)cc1 | i | 1.7
CC(C)CC#Cc1ccc2c(c1)O[C@@H](CN(C)C(=O)Cc1ccccc1)[C@H](C)CN([C@@H](C)CO)S2(=O)=O | i | -0.7
C[C@@H]1CN([C@H](C)CO)S(=O)(=O)c2ccc(C#Cc3ccccn3)cc2O[C@@H]1CN(C)C(=O)C1CC1 | i | -2.2
Cc1ccc(-c2ccc3c(c2)O[C@@H](CN(C)C(=O)NC(C)C)[C@@H](C)CN([C@H](C)CO)S3(=O)=O)cc1 | i | 0.8
C[C@H](CO)N1C[C@H](C)[C@@H](CN(C)Cc2ccc3c(c2)OCO3)Oc2ccc(NC(=O)Cc3ccccc3)cc2CC1=O | i | 4.5
C[C@@H]1CN([C@H](C)CO)C(=O)c2cc(NS(=O)(=O)c3cccs3)ccc2O[C@H]1CN(C)C(=O)Nc1ccc(C(F)(F)F)cc1 | i | 0.6
CO[C@H]1CC[C@H]2CCN(C)C(=O)[C@@H](C)N(C)C(=O)c3cc(C#N)ccc3OC[C@@H]1O2 | i | 1.6
O=C(NCC[C@@H]1CC[C@H](NS(=O)(=O)c2ccc(F)cc2)[C@H](CO)O1)c1ccc2c(c1)OCO2 | i | -0.5
COc1ccc2c3c(n(C)c2c1)[C@H](CO)N(C(=O)Nc1ccc(F)cc1)CC31CN(CC2CCOCC2)C1 | i | 7.2
CC(C)NC(=O)N(C)C[C@H]1Oc2ccc(NC(=O)Cc3ccccc3)cc2CC(=O)N([C@H](C)CO)C[C@@H]1C | i | -3.9
O=C(C[C@H]1CC[C@H]2[C@@H](COC[C@@H](O)CN2C(=O)Cc2ccccc2)O1)NC1CCC1 | i | -0.3
O=C(c1ccccc1)N1C[C@H]2[C@@H](c3ccccc31)[C@@H](CO)N2Cc1ccccc1F | i | -0.4
O=C(N1CCCCC1)[C@@]1(Cc2ccccc2)COC(c2ccc(OCCCO)cc2)=N1 | i | 0.8
C[C@@H]1CN([C@@H](C)CO)C(=O)c2cc(NC(=O)Nc3cccc4ccccc34)ccc2O[C@H]1CN(C)CC1CCCCC1 | i | 13

Another view of part of the listing above:
canonical_smiles	FGF22 binding	MLL AF4-AF9 inh
COC(=O)[C@]12C[C@H](CC(=O)NCc3ccccc3)C(=O)N(Cc3ccc4c(c3)OCO4)C1=C[C@H](COCc1ccccc1)O[C@@H]2C	i	-2.9
C[C@@H]1CN([C@@H](C)CO)C(=O)Cc2cc(NC(=O)Cn3cnnn3)ccc2O[C@H]1CN(C)S(=O)(=O)c1ccc(Cl)cc1	i	1.7
CC(C)CC#Cc1ccc2c(c1)O[C@@H](CN(C)C(=O)Cc1ccccc1)[C@H](C)CN([C@@H](C)CO)S2(=O)=O	i	-0.7

Entries of single compounds from above. Order of values: FGF22 binding	MLL AF4-AF9 inh
Shown for COCCNC(=O)C[C@H]1CC[C@@H]2[C@H](COc3ccc(NC(=O)COC)cc3C(=O)N2C)O1 → i	0.9
Shown for COc1ccccc1NC(=O)N[C@H]1CC[C@H](CCNS(=O)(=O)c2ccccc2)O[C@@H]1CO → i	0.0
